Rango-impB inh = qHTS Assay for Inhibitors of Rango (Ran-regulated importin-beta cargo) - Importin beta complex formation | Rango CFP/YFP FRET sensor + importin beta, 45 min | Potency, µM (series often up to 92.2 µM), without a hit: at the top dose inhibition of complex formation | 340,000 compounds, 0.031% hits; active = rising FRET ratio curve, often small or poorly fitted; inconclusive = mostly compound fluorescence or quenching in the first reads; inactive = flat curves in all reads;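 note: potency is the fitted concentration of half-maximal effect; 0% = DMSO wells and 100% = buffer wells lacking importin beta; nearly all actives have a fitted effect of over 15% in size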
Target sequence (Q14974 whole entry, looked up): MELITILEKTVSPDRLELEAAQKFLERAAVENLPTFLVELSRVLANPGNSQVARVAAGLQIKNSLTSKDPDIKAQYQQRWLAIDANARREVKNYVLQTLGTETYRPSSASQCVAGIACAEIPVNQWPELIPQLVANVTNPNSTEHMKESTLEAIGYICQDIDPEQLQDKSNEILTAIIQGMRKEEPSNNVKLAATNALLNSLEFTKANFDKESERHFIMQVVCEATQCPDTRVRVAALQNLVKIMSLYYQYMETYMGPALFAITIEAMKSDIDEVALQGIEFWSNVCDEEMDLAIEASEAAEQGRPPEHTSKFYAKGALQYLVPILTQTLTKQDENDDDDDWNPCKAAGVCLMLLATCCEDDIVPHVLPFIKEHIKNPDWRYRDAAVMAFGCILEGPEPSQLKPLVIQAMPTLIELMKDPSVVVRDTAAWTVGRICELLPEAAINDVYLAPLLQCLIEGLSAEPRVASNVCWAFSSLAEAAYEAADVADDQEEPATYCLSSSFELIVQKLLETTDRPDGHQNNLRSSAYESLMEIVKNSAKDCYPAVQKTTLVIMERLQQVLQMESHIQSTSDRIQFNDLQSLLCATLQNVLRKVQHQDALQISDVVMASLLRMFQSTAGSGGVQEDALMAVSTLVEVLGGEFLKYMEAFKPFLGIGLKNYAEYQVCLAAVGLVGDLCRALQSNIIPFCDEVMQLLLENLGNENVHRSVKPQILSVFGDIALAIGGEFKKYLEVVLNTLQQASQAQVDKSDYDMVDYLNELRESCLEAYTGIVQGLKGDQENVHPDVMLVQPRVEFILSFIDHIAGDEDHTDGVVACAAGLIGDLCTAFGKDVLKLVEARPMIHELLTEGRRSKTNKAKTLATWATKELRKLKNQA
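FRET biosensor (snurportin 1 IBB flanked by EYFP and cerulean), 50 nM, with compound 5 min, then 0.125 microM importin beta in PBS, 1 mM DTT, 0.02% Tween-20, 0.1% BSA. CFP/YFP ratio read after 45 min at room temperature; pre-read flags interference.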
Rango dissoc inh = qHTS Assay for Inhibitors of RanGTP induced Rango (Ran-regulated importin-beta cargo) - Importin beta complex dissociation; AID 540253, 2011; Snurportin-1 (Homo sapiens) + GTP-binding nuclear protein Ran (Homo sapiens) + Importin …; 340,000 compounds, 0.071% hits; Potency, µM (series often up to 46.1 µM), for the others: at the top dose activity change, negative = inhibition; Biochemical FRET Rango-importin beta, RanGTP-induced dissociation; active means falling FRET ratio curve, often poorly fitted, with flat reads before Ran was added; inconclusive means other falling curves, or compound fluorescence or quenching; inactive means flat or rising ratio curve;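 note: potency is the fitted concentration of half-maximal effect; % of control where 0% means no effect; nearly all actives have a fitted effect of over 45% in size; -100% = wells without RanGTP and RCC1; the record marks most hits as doubtful in a second field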
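Quantitative HTS using a FRET biosensor: 0.1 uM Rango, 0.25 uM importin beta, 0.6 uM Ran, 2 mM GTP, 0.2 uM RCC1 final, PBS with DTT, Tween-20 and BSA. Post-read taken 45 min after Ran addition.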
miR-21 FLuc = qHTS Assay for Modulators of miRNAs and/orActivators of miR-21. HeLa miR-21 FLuc reporter, luciferase, 48 h. Potency, µM (series often up to 38.3 µM), inactives show top-dose reporter change, positive = more light. 340,000 tested, under 10 active; active = well fitted rising curve with a large enough effect; inconclusive = small, poorly fitted or top-dose-only effect; inactive = no such curve, though single readings can be large or run the other way;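 note: % of control where 0% means no effect; miR-21 action dims this reporter so a rising signal means less miR-21 action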
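HeLa cells endogenously expressing miR-21, stably carrying CMV-driven firefly luciferase with a downstream miR-21 binding site, 2000 cells/well. Titrations up to approximately 40 uM, 48 hours; luciferase luminescence read.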
GLA inh pH 4.5 = qHTS Assay for Inhibitors of Human alpha-Galactosidase at pH 4.5; purified enzyme, 4-MU-alpha-Gal fluorescence, pH 4.5; activity change, negative = inhibition, % at 105 µM; 230,000 tested, under 10 active; Alpha-galactosidase A (Homo sapiens), P06280; AID 1467, 2008; inconclusive = small, poorly fitted or top-dose-only inhibition, or a rising curve; inactive = flat fitted curve, though single readings scatter; no compound was filed as active;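 note: 0% = full activity with enzyme and -100% = basal without enzyme; dose as in the result columns while the protocol names 77 µM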
An asterisk follows results filed as active; ? = inconclusive; · = no result given; & = joins results of further samples. Some of the compounds tested; rates above refer to the full screens.

SMILES	Rango-impB inh	Rango dissoc inh	miR-21 FLuc	GLA inh pH 4.5
CCOC1(c2ccccc2)CC1C(=O)N/N=C/c1cccc([N+](=O)[O-])c1 (configuration not stated)	-3.5%	19%	-5%	-4
CCSc1nc(=S)n(CC)c(C)c1C(C)=O	-1.6%	8%	-3%	4
CN1CCN(C(=O)CCCN2C(=O)/C(=C/c3cccc(Br)c3)SC2=S)CC1	2.3%	26%	20%	·
COc1ccc(C(=O)OCC(=O)Nc2sccc2C(N)=O)cc1OC	-2.2%	15%	0%	5
O=C(Nc1ccc(Br)cc1)c1ccc(N2C(=O)C3CC=CCC3C2=O)cc1 (configuration not stated)	0.5%	-28%	0%	1
C/C(N)=C(/C#N)C(=O)CSc1nc2scc(-c3ccc(F)cc3)c2c(=O)n1C	2.5%	8%	2%	1
COc1ccc(S(=O)(=O)N2CCCCC2)cc1NC(=O)c1ccco1	-0.3%	-11%	0%	·
O=C(Nc1nc2ccc([N+](=O)[O-])cc2s1)c1ccc(S(=O)(=O)N2CCCc3ccccc32)cc1	?	-27%	1%	?
COC(=O)c1c(NC(C)=O)sc(Cc2ccccc2)c1C	-0.9%	17%	-12%	-6
CN1C(=O)SC(Nc2ccccc2C(=O)O)C1=O (configuration not stated)	-0.2%	0%	-2%	3
CCn1nnc(NC(=O)Cc2ccc(Cl)cc2)n1	-4.1%	2%	-3%	4
CC1CCCN(C(=O)CNC(=O)c2sc3ccccc3c2Cl)C1 (configuration not stated)	2.5%	1%	·	·
Cc1ccc(S(=O)(=O)Nc2cc(C)cn(Cc3ccccc3)c2=O)cc1	?	?	9%	·
Cc1c(C(=O)N(C)Cc2nc3ccccc3c(=O)[nH]2)oc2ccccc12	-3.8%	-14%	·	·
CCCCOc1ccc(/C=C/C(=O)OCC(=O)NC2CCS(=O)(=O)C2)cc1OCC (configuration not stated)	5.5%	10%	·	·
O=[N+]([O-])c1cccc(C(=S)N2CCCC2)c1	0.8%	17%	0%	-19
COC(=O)c1ccc(NC(=O)c2ccccc2CC[N+](=O)[O-])cc1	5.9%	-11%	-16%	5
Cc1ccccc1NC(=O)c1cnc(Nc2nc3ccccc3s2)nc1C	·	·	-3%	7
COc1cccc(NS(=O)(=O)c2ccc(OC)c(OC)c2)c1	-6.7%	5%	3%	10
COc1cccc(OC)c1C(=O)Nc1cccc(-c2ccc3nncn3n2)c1	0.1%	8%	-20%	3
Cc1c(NC(=O)c2cnn3c(C(F)(F)F)cc(-c4ccco4)nc23)c(=O)n(-c2ccccc2)n1C	-0.6%	12%	-4%	-15
CSCCC(NS(=O)(=O)c1ccccc1F)C(=O)NC(C)c1ccccc1 (configuration not stated)	-3.4%	-6%	-2%	3
CCCOC(=O)C(=O)NNc1ccccc1	-1.1%	4%	3%	-2
CC(C)C(OC(=O)CN1C(=O)COc2ccccc21)C(=O)NC1CCCCC1 (configuration not stated)	2.4%	-2%	0%	·
COC(=O)c1c(C(=O)OC)c(-c2ccccc2)n2c1CS(=O)(=O)C2	1.8%	-17%	0%	3

At a glance, part of the list above.
SMILES	Rango-impB inh	Rango dissoc inh	miR-21 FLuc	GLA inh pH 4.5
CCOC1(c2ccccc2)CC1C(=O)N/N=C/c1cccc([N+](=O)[O-])c1 (configuration not stated)	-3.5%	19%	-5%	-4
CCSc1nc(=S)n(CC)c(C)c1C(C)=O	-1.6%	8%	-3%	4
CN1CCN(C(=O)CCCN2C(=O)/C(=C/c3cccc(Br)c3)SC2=S)CC1	2.3%	26%	20%	·
COc1ccc(C(=O)OCC(=O)Nc2sccc2C(N)=O)cc1OC	-2.2%	15%	0%	5

Other results
SMILES	Rango-impB inh	Rango dissoc inh	miR-21 FLuc	GLA inh pH 4.5
O=C(NNC1CC(=O)N(c2ccc(Br)cc2)C1=O)c1ccccn1 (configuration not stated)	-0.3%	5%	-14%	11
NS(=O)(=O)c1ccc(NCc2ccccc2OCc2ccccc2F)cc1	-1.2%	3%	-1%	2
Cc1cc(Oc2ccccc2)nc(-c2ccccc2)n1	7.8%	-23%	-22%	19
CC(Oc1ccc2ccc(=O)oc2c1)C(=O)NC(Cc1c[nH]c2ccc(O)cc12)C(=O)O (configuration not stated)	-0.8%	3%	1%	·
COc1cc(C(=O)NC(C)CCc2ccccc2)cc(OC)c1OC (configuration not stated)	3.3%	0%	1%	·
CCN(C(=O)COc1ccc(C)nc1[N+](=O)[O-])C1CCS(=O)(=O)C1 (configuration not stated)	-4.2%	-3%	-1%	2
Cc1cc(Cl)nc(Cl)c1C(=O)N1CCOCC1	7.2%	1%	-2%	5
O=C(CSc1ncn[nH]1)Nc1ccc(Cl)c(Cl)c1	-0.2%	?	11%	-3
CC(NC(=O)CNC(=O)c1cccs1)c1cccc(C(F)(F)F)c1 (configuration not stated)	-1.2%	20%	·	·
O=C(COc1coc(CN2CCN(c3ccccc3F)CC2)cc1=O)NC1CCCCC1	-10%	35%	·	·
Cc1ccccc1C(=O)N1CCN(c2ccc([N+](=O)[O-])c(NCc3cccnc3)c2)CC1	-4.2%	2%	-5%	-14
CCOc1cc(S(=O)(=O)N2CCN=C2Cc2ccccc2)ccc1F	3.4%	0%	-3%	·
O=C(c1ccco1)N1CCN(Cc2cc(=O)c(OCc3ccc([N+](=O)[O-])cc3)co2)CC1	2.8%	-1%	·	·
COc1ccc(OC)c(NC(=O)C2CCN(S(=O)(=O)c3ccc4c(c3)OCCO4)CC2)c1	-1.4%	0%	·	·
CCOc1cnc(-c2ccc(Cl)cc2)o1	0.8%	-8%	-22%	-9
O=C(NCc1ccccc1Cl)C1CCCN1C(=O)NC1CCCCC1 (configuration not stated)	-0.9%	8%	-3%	·
Cc1ccc(NC(=O)CCNS(=O)(=O)c2ccc3c(c2)c(=O)n(C)c(=O)n3C)cc1C	-1.0%	0%	3%	-6
CCOC(=O)/C(C#N)=C1/C=CN(C)C=N1	3.9%	4%	-3%	-4
CC(COc1cccc2ccccc12)CN1CCN(C)CC1 (configuration not stated)	0.4%	-2%	-18%	1
O=C(CCNS(=O)(=O)c1cccc2nsnc12)NCc1ccccc1	-1.1%	1%	-1%&1%	·
O=[N+]([O-])c1ccc(OCCO)c(P(=O)(c2ccccc2)c2ccccc2)c1	-0.9%	-10%	-6%	0
COC(=O)CSc1nc(N)c(C#N)c(-c2ccco2)c1C#N	-1.7%	-16%	-18%	-9
COc1cccc(OC)c1C(=O)Nc1ccc([N+](=O)[O-])cn1	0.4%	-1%	2%	-4
COc1ccc(N2C(=O)CC(N(Cc3ccco3)C(=O)CCC(=O)O)C2=O)cc1 (configuration not stated)	-1.2%	-1%	-2%	-2
C=C(C)c1nc(Oc2ccccc2)nc(Oc2ccccc2)n1	-2.8%	-14%	·	·

Carrying on.
SMILES	Rango-impB inh	Rango dissoc inh	miR-21 FLuc	GLA inh pH 4.5
O=C(N/C(=C\c1cn(-c2ccccc2)nc1-c1ccc(Cl)cc1)C(=O)N1CCOCC1)c1ccccc1	·	·	-6%	11
Cc1ccccc1CSc1ncc(C#N)c(N)n1	?	-19%	-21%	2
N#Cc1ccccc1Sc1ccccc1C(=O)Nc1ccc(Br)cc1	-4.7%	3%	-2%	1
Cc1ccc([N+](=O)[O-])cc1NC(=S)NC(=O)c1cccnc1	1.2%	-3%	-1%	-19
COc1cc(NS(=O)(=O)c2cc3c(cc2C)NC(=O)CO3)cc(OC)c1	0.4%	-10%	6%	·
CC1(C)O[C@@H]2[C@H](O1)[C@@H](CO)O[C@H]2n1cnc2c(=O)[nH]cnc21	-1.9%	-1%	·	·
CC(=O)Nc1ccc(NC(=O)CN(C)S(=O)(=O)c2ccc3ccccc3c2)cc1	6.3%	5%	8%	·
c1ccc2cc(-c3csnn3)ccc2c1	1.2%	1%	-27%	0
COc1ccccc1/C=N/Nc1nc(C)cc(C)n1	-0.4%	1%	-15%	-13
Cc1sc2ncnc(NS(=O)(=O)c3ccc(Cl)cc3)c2c1C	-5.5%	11%	·	·
Cc1cc(C)n(CC(=O)Nc2ccc([N+](=O)[O-])cc2)n1	0.9%	11%	2%	-26
O=C(CCCCCN1C(=O)c2cccc([N+](=O)[O-])c2C1=O)Nc1ccccc1F	0.7%	-8%	-3%	·
CCN(CC)CCn1c(=N)n(CC(O)COc2cccc(C)c2)c2ccccc21 (configuration not stated)	-6.6%	-22%	4%	-1
COC(=O)c1ccc2c(c1)sc(=NC(=O)CCS(=O)(=O)c1ccccc1)n2C	-4.7%	-17%	·	·
CC1CN(C(=O)CS(=O)(=O)Cc2ccccc2)CC(C)O1 (configuration not stated)	-0.1%	4%	3%	·
CCOc1ccc(CC(=O)N/N=C/c2cccnc2)cc1OCC	3.0%	-29%	-1%	·
CC/C(=N/Nc1cccc(Cl)c1)c1cnnc(SC)n1	3.0%	-12%	-15%	-10
O=C(O)C(Cc1ccccc1)N1CCS(=O)(=O)CC1 (configuration not stated)	-1.7%	0%	0%	5
O=C(/C=C/c1cccc(Oc2ccccc2)c1)N1CCOCC1	-3.1%	-16%	-53%	9
CCc1cc2c(NC(Cc3ccccc3)C(=O)O)nc(C)nc2s1 (configuration not stated)	-0.4%	17%	-3%	·
Cc1nc(SCC(=O)c2c(N)n(C3CC3)c(=O)[nH]c2=O)[nH]c(=O)c1CCO	-1.4%	-15%	·	·
COc1ccc(C(=O)N(C(C)C)C(C)C)c(OC)c1	0.9%	-12%	-1%	2
O=C(CNCCCO)Nc1cc(C(F)(F)F)cc(NC(=O)CNCCCO)c1Cl	-2.9%	?	-3%	2
CC(C)C(=O)NC(NC(=O)C(C)C)c1ccc([N+](=O)[O-])cc1	-0.4%	8%	1%	9
O=C(NC(=S)Nc1cccc([N+](=O)[O-])c1)c1ccccc1	2.2%	4%	-51%	-5

Single records (already shown). Screens in order: Rango-impB inh | Rango dissoc inh | miR-21 FLuc | GLA inh pH 4.5
Profile of COc1ccc(N2C(=O)CC(N(Cc3ccco3)C(=O)CCC(=O)O)C2=O)cc1 (configuration not stated) → -1.2% | -1% | -2% | -2
Profile of COC(=O)CSc1nc(N)c(C#N)c(-c2ccco2)c1C#N → -1.7% | -16% | -18% | -9
Profile of CC(Oc1ccc2ccc(=O)oc2c1)C(=O)NC(Cc1c[nH]c2ccc(O)cc12)C(=O)O (configuration not stated) → -0.8% | 3% | 1% | ·
Profile of COc1ccc(C(=O)N(C(C)C)C(C)C)c(OC)c1 → 0.9% | -12% | -1% | 2

Next records follow.
SMILES	Rango-impB inh	Rango dissoc inh	miR-21 FLuc	GLA inh pH 4.5
COC(=O)c1c(NC(=O)C(=O)NCC2CCCO2)sc2c1CC(C)(C)OC2 (configuration not stated)	-2.1%	-11%	-2%	·
CC1(C)CC(=O)C=C(c2ccc(F)cc2OCc2ccccc2)C1	-0.7%	-5%	·	·
COc1ccc(Cl)cc1NC(=O)C(C)Sc1nncn1C (configuration not stated)	0.8%	-18%	-3%	-2
O=C(COc1ccc(F)cc1)Nc1cc(Cl)ccc1-n1cncn1	2.5%	-4%	·	·
CC(=O)NC1(c2cccc(F)c2)CCN(C(=O)Nc2ccc(C#N)cc2)CC1	9.7%	20%	-1%	6
Cc1cc(C(=O)Nc2cc(C(F)(F)F)ccc2N2CCOCC2)no1	2.9%	-2%	0%	·
COC(=O)c1ccc(NCC(=O)c2ccccc2)cc1	4.1%	1%	-45%	-1
CCCCn1c(N)c(N(CCOC)C(=O)c2cccc(S(=O)(=O)N(CC)c3ccccc3)c2)c(=O)[nH]c1=O	2.5%	23%	·	·
CCCCCCN(C(=O)CCCCCN1C(=O)NC(c2ccc(Cl)cc2)C(C(=O)OCc2ccccc2)=C1C)C(C(=O)NCCCC)c1ccc(OCC(=O)OC)c(C(=O)OC)c1 (configuration not stated)	·	·	-11%	1&-3
COCCN1C(=O)c2oc3cc(C)c(C)cc3c(=O)c2C1c1ccc(O)cc1 (configuration not stated)	-4.2%	38%	·	·
Cc1sc2nc(CSCC(=O)NC3CCCCC3)[nH]c(=O)c2c1C	-2.3%	-19%	·	·
COc1ccc(Cl)cc1NC(=O)CSc1nc2sccc2c(=O)[nH]1	-4.6%	11%	-1%	12
Cc1ccc(NC(=O)NC2CCCCC2)cc1Cl	-2.8%	-2%	-52%	-5
